# Bioassay records: PubChem, several laboratories
# Vif TR-FRET: inhibitors of Vif binding to APOBEC3G peptide, primary screen, biochemical, TR-FRET, GST-Vif 1-94, biotin-A3G peptide, dose response retest (AID 1117319) | inhibition, %, or IC50 in µM where a hit was titrated | TR-FRET GST-Vif / biotin-A3G peptide binding; higher % means a stronger effect; test concentration not given here; strong numbers were not always called active | hit rate 0.57% among 260,000;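 active means above the screen mean plus three standard deviations and confirmed in dose response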;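 further: Vif residues 1-94 fused to GST binding biotinylated APOBEC3G peptide 110-148; 0% = full assay without inhibitor and 100% = GST in place of GST-Vif; retest series ran down from 100 µM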
# rRNA inh HTS: reduced GFP signal of wild-type E. coli, primary screen, bacterial rRNA inhibitor project, GFP/RFP fluorescence, OD600, single point. E. coli WT GFP vs humanized-ribosome RFP mutants, 24 h; stronger effect = lower value; DMSO median 0, no signal -100. GFP signal change (wild-type ribosome), % (concentration not given with the values). hit rate 1.6% among 350,000. AID 720706, 2013;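 active means significant combined selectivity score with lowered wild-type GFP, culture density cut under 30%, mutant RFP and density less affected; inactive means any of these conditions unmet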; further: one replicate is shown; some compounds called inactive have numbers as strong as hits
# MLL AF4-AF9 inh: inhibitors of AF4 peptide binding to AF9, primary screen, biochemical, AlphaScreen, biotin-AF4 peptide, FLAG-AF9, single point; Protein AF-9 (Homo sapiens), P42568; inhibition, % at 10 µM; hit rate 0.47% among 350,000;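 active means every replicate reaching a set inhibition limit, whatever the replicate mean, cut at about 25% in these data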;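 further: 0% = plate neutral control median and 100% = total signal loss; the record names both 10 and 1 µM as test concentration; the first replicate is given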
# Target sequence (P42568 whole entry, looked up): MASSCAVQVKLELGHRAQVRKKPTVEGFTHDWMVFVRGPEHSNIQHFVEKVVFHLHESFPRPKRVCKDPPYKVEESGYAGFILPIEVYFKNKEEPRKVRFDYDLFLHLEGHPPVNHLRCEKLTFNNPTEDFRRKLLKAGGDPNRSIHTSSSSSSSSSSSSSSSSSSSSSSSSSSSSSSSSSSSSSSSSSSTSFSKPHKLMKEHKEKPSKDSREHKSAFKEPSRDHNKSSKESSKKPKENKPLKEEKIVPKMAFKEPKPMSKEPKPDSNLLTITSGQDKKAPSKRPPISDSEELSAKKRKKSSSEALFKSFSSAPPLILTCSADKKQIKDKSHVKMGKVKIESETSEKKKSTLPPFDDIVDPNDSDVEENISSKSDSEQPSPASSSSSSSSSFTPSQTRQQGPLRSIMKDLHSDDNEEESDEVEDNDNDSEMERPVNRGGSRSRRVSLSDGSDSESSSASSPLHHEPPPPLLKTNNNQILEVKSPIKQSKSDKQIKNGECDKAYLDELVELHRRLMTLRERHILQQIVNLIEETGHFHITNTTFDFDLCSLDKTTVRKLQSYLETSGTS
# rRNA inh HTS OD600: recorded beside rRNA inh HTS, whose call it bears; OD600 change, %; measured here: OD600 growth;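 optical density of the mix in the first replicate; 0 = DMSO median and -100 = no signal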
# rRNA inh HTS RFP: second read-out of rRNA inh HTS, no call of its own (marks repeat the call); RFP signal change, %; measured here: RFP humanized mutant strains;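 first replicate; 0 = DMSO median and -100 = no signal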
# * = called active by the depositor; & = joins results of further samples.
SMILES,Vif TR-FRET,rRNA inh HTS,rRNA inh HTS OD600,rRNA inh HTS RFP,MLL AF4-AF9 inh
Cc1cccc2cc(C#N)c(NCCNC(=O)c3ccccc3)nc12,-9%,24,6,0.7,-2.1
CC(=O)Nc1c(C(=O)O)ccc(C)c1OCc1ccccc1,0%,9,8,0.2,0.1
NC(=O)C1=CC2C3C=CC2(O)C(=O)OC3O1 (configuration not stated),-6%,14,18,0.1,-0.6
CC1CCCCC1NC(=O)NC(=O)COC(=O)c1ccc(OC(F)F)cc1 (configuration not stated),6%,5,4,0.5,-0.2
CCCCCC(=O)N1C[C@H](n2cc(COC(=O)c3ccccc3)nn2)[C@@H](O)C[C@@H]1c1ccc(Cl)cc1,-5%,1,-3,4.5,-0.9
Nc1c(Cl)cc(C(=O)NC2CC2)cc1Cl,-1%,6,13,2.2,-3.2
Cc1ccc(S(=O)(=O)N(C)C[C@@H]2Oc3ncc(Br)cc3C(=O)N([C@H](C)CO)C[C@@H]2C)cc1,4%,-2&-4,8&-7,-1.7&0.6,0.0&2.5&-1.5
COc1ccc(CN2C(=O)C(CC(=O)NCCN3CCOCC3)CC(C(=O)N(C(C)C)C(C)C)=C2C)cc1 (configuration not stated),-5%,18,10,-0.5,-1.4
N#CCCN(Cc1ccccc1)C(=O)CCC(=O)c1ccc(F)cc1,-1%,10,9,0.0,-2.3
Cc1nn(CC(=O)NC(C)C(C)C)c(C)c1S(=O)(=O)N1CCCCC1 (configuration not stated),-5%,7,8,0.8,-0.5
O=C(CN1C(=O)C(=O)N(C2CCCC2)C1=O)Nc1ccc(F)cc1F,3%,6,12,-0.2,-0.1
CN1C(=O)[C@H]2[C@@H](c3ccc(C(F)(F)F)cc3)N[C@]3(CCCN(CC4CCCCC4)C3=O)[C@H]2C1=O,3%,-2,-5,1.2,1.8
COc1cc(N=Nc2ccc(C(=O)N(C)C)cc2)c(C)cc1N,5%,-15,-3,13,10
O=S(=O)(c1ccccc1)N1CCCCC1CCc1ccccc1 (configuration not stated),-15%,-4,-49,-1.5,-12
COc1ccc(CN2C(=O)C(CC(=O)NCc3cccc4ccccc34)CC(C(=O)N3CCOCC3)=C2C)cc1 (configuration not stated),7%,-14,-9,1.9,6.5
CC(C)c1ccc(C2OCCCO2)cc1,5%,2,4,-1.8,-1.9
NS(=O)(=O)c1cc(C(=O)OCC(=O)NC2CCCCCCC2)ccc1Cl,-3%,-1,-7,1.4,-1.9
NC(=O)Cc1ccc(OCc2nn[nH]n2)cc1,5%,6,11,0.2,-1.9
N#CC(=C(O)CN1CCN(c2ccccc2F)CC1)c1nc(-c2ccccc2)cs1,-5%,-33,-63,-8.6,0.6
COc1cc(/C=C/C(=O)OCC(=O)c2ccc(S(=O)(=O)N3CCCCC3)cc2)cc(OC)c1OC,-30%,6,11,0.5,-0.9

# The final 4 compounds of the part above come first, to join the parts.
SMILES,Vif TR-FRET,rRNA inh HTS,rRNA inh HTS OD600,rRNA inh HTS RFP,MLL AF4-AF9 inh
NS(=O)(=O)c1cc(C(=O)OCC(=O)NC2CCCCCCC2)ccc1Cl,-3%,-1,-7,1.4,-1.9
NC(=O)Cc1ccc(OCc2nn[nH]n2)cc1,5%,6,11,0.2,-1.9
N#CC(=C(O)CN1CCN(c2ccccc2F)CC1)c1nc(-c2ccccc2)cs1,-5%,-33,-63,-8.6,0.6
COc1cc(/C=C/C(=O)OCC(=O)c2ccc(S(=O)(=O)N3CCCCC3)cc2)cc(OC)c1OC,-30%,6,11,0.5,-0.9
C[C@@H]1CCCCO[C@H](CN(C)Cc2ccc3c(c2)OCO3)[C@@H](C)CN([C@H](C)CO)C(=O)c2cc(NC(=O)c3ccccc3)ccc2O1,-8%,-4&0,-2&-5,1.5&-0.6,8.1&-0.4
O=c1[nH]c(=O)n(C2CC(O)C(CO)O2)cc1Br (configuration not stated),2%,1,18,1.4,-1.7
COCCCNC(=O)CC1C[C@H](C(=O)N2CCOCC2)[C@@]2(CCC3CCCC3)c3[nH]c4ccc(OC)cc4c3CCN2C1=O (some centres not stated),-3%,14,13,4.9,0.6
CC(Sc1nc(C(F)(F)F)nc2ccccc12)C(=O)NC1CCCC1 (configuration not stated),3%,-2,0,-4.0,-0.8
CCN(CC)C(=O)C1=C(C)N(Cc2ccccc2)C(=O)C(CC(=O)NC2CCCCC2)C1 (configuration not stated),1%,-5,-2,-0.5,-13
Cc1ccc(N(C)S(=O)(=O)c2cccc(C(=O)OCC(=O)N(C)Cc3ccccc3)c2)cc1,-7%,0,1,1.0,-4.4
CCN(CC)S(=O)(=O)c1ccc(C(O)=C(C#N)c2nc3ccccc3n2C)cc1,-5%,2,13,-4.0,1.2
O=C1NC[C@H](Cc2ccccc2)N(CC2CCN(CCc3ccccc3)CC2)C1=O,-8%,0,5,-0.3,-3.0
CC(=O)c1ccc2c3c(cc(C)c2c1)CCCC3,5%,-33,-69,-10,-2.8
CC(C)OC(=O)N(C)C[C@H]1OCc2cnnn2CCCC(=O)N([C@H](C)CO)C[C@H]1C,6%,0,-2,-3.0,-0.8&-0.2&-1.0
Cc1cccc(NC(=O)CNC(=O)CSc2nc(N)cc(N)n2)c1C,11%,10,12,1.1,-3.1
O=C1NCCN1c1ccccc1,-8%,18,1,3.3,-2.4
COc1ccc(CNC(=O)CN2CCN(S(=O)(=O)c3cc(Br)ccc3Br)CC2)cc1OC,-4%,-14,-21,-0.3,0.0
C[C@H](O)[C@@H]1C(=O)N2CCc3ccc(-c4cccc(F)c4)cc3[C@@H]2C[C@@H]1N(C)C(=O)Nc1ccccc1,8%,-13,-8,10.0,-2.4
Cc1ccc(S(=O)(=O)N2CCN(C(=O)c3cc(S(=O)(=O)N(C)C)ccc3N3CCCC3)CC2)c(C)c1,8%,4,-5,12,2.7
CC12CCCC(C(C#N)C(N)=O)(C1)NC(=O)C2C#N (configuration not stated),2%,6,13,1.1,-6.3
NC(=O)c1ccsc1NC(=O)COC(=O)CCCOc1ccccc1,0%,-8,-13,0.8,-1.9
Brc1ccc2c(c1)-c1ccccc1C1=NCCN12,-10%,-40,-74,-1.2,-4.0
CC12CCC(=O)C=C1C(O)CC1C2CCC2(C)C1CCC2(O)C(=O)CO (configuration not stated),0%,-1,7,1.8,1.3
C[C@H](O)CNC(=O)c1[nH]cnc1C(=O)N[C@@H](C)c1ccccc1,2%,0,0,-7.2,-0.9
N#C/C(=C/C1=C(N2CCOCC2)C(=C/c2cccc([N+](=O)[O-])c2)/CC1)C(=O)Nc1ccccc1F,-5%,5,16,14,-3.6
CCc1ccc(/C=C2\SC(=S)N(CCCC(=O)NC3=NCCS3)C2=O)cc1,4%,4,5,-0.3,-8.0
O=C(NCCN1CCOCC1)c1ccc2c(c1)N(Cc1cccc(Cl)c1)C(=O)c1ccccc1S2(=O)=O,4%,-15,-28,2.2,6.3
C=C1CC(COc2ccc3c(C)c(Cl)c(=O)oc3c2)(c2ccccc2)OC1=O (configuration not stated),-16%,2,-4,8.8,-4.2
COC(=O)c1cc(C)sc1NC(=O)CC1Nc2ccccc2NC1=O (configuration not stated),19%,-18*,-7.8*,12*,1.1
COc1ccc(-c2csc(NC(=O)CCNC(=O)c3ccco3)n2)cc1,-5%,-10,-45,8.7,-2.6
CC1=C(C(=O)N(C)C)CC(CC(=O)NCc2ccco2)C(=O)N1Cc1ccccc1 (configuration not stated),3%,2,19,6.1,0.9
C[C@@H]1CC[C@H](Cc2ccc(-n3cccc3)cc2)N1C(=O)OC(C)(C)C,-5%,0,1,3.2,7.3
Cc1ccc(S(=O)(=O)N2C[C@]3(O)C[C@@H]4C(=O)N(c5ccccc5)C(=O)[C@@H]4C[C@]3(OC(=O)NCc3ccccc3)C2)cc1,2%,-6,6,-0.4,-0.1
COCCCN1C(=O)C(CC(=O)NC(c2ccccc2)c2ccccc2)CC(C(=O)N2CCOCC2)=C1C (configuration not stated),4%,16,1,-0.2,-1.2

# Taken from the entries so far, three compounds:
SMILES,Vif TR-FRET,rRNA inh HTS,rRNA inh HTS OD600,rRNA inh HTS RFP,MLL AF4-AF9 inh
N#C/C(=C/C1=C(N2CCOCC2)C(=C/c2cccc([N+](=O)[O-])c2)/CC1)C(=O)Nc1ccccc1F,-5%,5,16,14,-3.6
CCc1ccc(/C=C2\SC(=S)N(CCCC(=O)NC3=NCCS3)C2=O)cc1,4%,4,5,-0.3,-8.0
O=C(NCCN1CCOCC1)c1ccc2c(c1)N(Cc1cccc(Cl)c1)C(=O)c1ccccc1S2(=O)=O,4%,-15,-28,2.2,6.3

# More results
SMILES,Vif TR-FRET,rRNA inh HTS,rRNA inh HTS OD600,rRNA inh HTS RFP,MLL AF4-AF9 inh
COC(=O)c1cc(NS(=O)(=O)c2cccs2)cc(NS(=O)(=O)c2cccs2)c1,0%,-12,-26,-2.0,-1.3
COc1ccc(CNC(=O)O[C@H]2CN(C(=O)OC(C)C)N(C(=O)OC(C)C)[C@@H]3CN(S(=O)(=O)c4ccc(C)cc4)C[C@]23O)cc1OC,-4%,11,2,2.4,1.0
CCN(Cc1nc2cc(Cl)ccc2c(=O)[nH]1)C(=O)c1cc2c(s1)CCCCC2,-22%,0,2,1.1,5.0
CCCCCCC1CC(=CN(C)C)C(=O)O1 (configuration not stated),6%,-4,-15,7.4,-2.9
Cc1c(Cl)cccc1NC(=S)NC(=O)c1ccccc1,7%,9,25,3.5,-6.1
COc1ccc(CC(=O)N[C@@H]2c3ccccc3CC[C@H]2OCc2ccccc2)cc1,-2%,7,22,-2.5,-3.9
O=C(c1ccc2noc(-c3ccccc3)c2c1)N1CCN(c2ccccc2)CC1,-1%,-6,-6,3.5,10
CC(=O)Nc1ccc(NC(=O)c2cc(C3CC3)nc3c2cnn3C(C)C)cc1,0%,2,0,-0.5,-1.1
Cc1nn(Cc2ccccc2)c(C)c1CNC(=O)CN=C1NS(=O)(=O)c2ccccc21,-1%,3,3,-0.5,-5.7
COc1ccc(N2CCN(CC(=O)Nc3ccccc3C(=O)NCc3ccccc3)CC2)cc1,0%,-29*,-22*,-2.4*,11

# Quoted from the listing:
# In rRNA inh HTS OD600, CC(=O)Nc1ccc(NC(=O)c2cc(C3CC3)nc3c2cnn3C(C)C)cc1 reads 0
# In rRNA inh HTS OD600, COc1ccc(CC(=O)N[C@@H]2c3ccccc3CC[C@H]2OCc2ccccc2)cc1 reads 22
# In rRNA inh HTS, O=C(c1ccc2noc(-c3ccccc3)c2c1)N1CCN(c2ccccc2)CC1 reads -6

# Going on with the list:
SMILES,Vif TR-FRET,rRNA inh HTS,rRNA inh HTS OD600,rRNA inh HTS RFP,MLL AF4-AF9 inh
COc1ccccc1NS(=O)(=O)c1cccc(NS(=O)(=O)c2cc(C(=O)O)ccc2Cl)c1,4%,7,11,1.1,-3.8
Cc1nnc(N2C(=O)C(=O)/C(=C(/O)c3ccc4c(c3)OCCO4)C2c2cccc([N+](=O)[O-])c2)s1 (configuration not stated),1%,4,18,-1.4,-7.7
CCCCC(C)Sc1nc2c([nH]1)c(=S)n(C)c(=O)n2C (configuration not stated),-16%,-61,-79,-18,3.1
CN(CCc1ccccc1)C(=O)c1ccc(NC(=O)Cc2cccc(NC(=O)C3CCN(S(=O)(=O)c4cccc([N+](=O)[O-])c4)CC3)c2)cc1,1%,11,16,2.7,-1.7
Cc1cccc(C)c1NC(=O)CNC(=O)c1ccc2c(c1)NC(=O)CS2,0%,10,9,1.9,-5.0
CN(Cc1ccccc1)C(=O)CCC1CCN(C(=O)c2ccco2)CC1,1%,4,3,-0.5,-0.6
Cc1cc(N2C(=O)C(O)=C(C(=O)c3ccc(C)o3)C2c2cccc(Cl)c2)no1 (configuration not stated),-17%,-14,-18,0.5,0.9
Clc1cccc(CN2CCC3CC2c2cc(N4CCCCC4)ccc23)c1 (configuration not stated),-3%,-31,-49,-3.3,26*
Cc1cn([C@H]2C[C@H](O)[C@@H](CNC(=O)[C@H](N)Cc3cccnc3)O2)c(=O)[nH]c1=O,-8%,6,14,-3.7,-4.8
COc1ccc(Cc2nc3c([nH]2)c(=O)n(C)c(=O)n3C)cc1OC,-3%,9,8,-1.2,-40
C[C@@H]1CN([C@@H](C)CO)C(=O)CCCn2cc(nn2)CO[C@H]1CN(C)S(=O)(=O)c1ccccc1,-7%,0,-3,-1.9,0.3&0.8&-0.2
O=C(C[C@H]1C[C@H](C(=O)N2CCCCC2)[C@@]2(CCc3ccccc3)c3[nH]c4cc(-c5ccco5)ccc4c3CCN2C1=O)NCCN1CCOCC1,5%,-6,12,3.5,26*
Cc1c(C(=O)N2CCN(S(=O)(=O)c3ccccc3)CC2)oc2ccc(Br)cc12,-7%,3,-4,0.6,-0.9
COc1ccc([C@H]2C[C@H](O)[C@@H](n3cc(-c4ccc(F)cc4)nn3)CN2C(=O)C2CCCCC2)cc1,-4%,14,13,4.3,0.6
OCC1OC(n2cnc3c(SCc4ccccc4)nc(NO)nc32)C(O)C1O (configuration not stated),2%,12,8,-0.3,-7.2
O=C1c2nccnc2C(=O)N1Cc1ccccc1,8%,11,14,0.8,-0.2
Nc1ccn([C@@H]2O[C@H](CNC(=O)[C@@H](Cc3cccnc3)NC=O)[C@@H](O)[C@H]2O)c(=O)n1,4%,7,8,-3.1,-3.1

# This is a subset; rates above refer to the full screens.
